# Screening data: PubChem, National Center for Advancing Translational Sciences (NCATS)
# CtBP-E1A blk = blocks the CtBP interaction with E1A | AlphaScreen GST-E1A/His-CtBP binding, 1536-well; stronger effect = lower value; control for the full effect not named in the record | activity change, % (test concentration not listed) | actives 0.49% (n = 340,000) | AID 651724; in the data active means activity change below about -65%; inconclusive means about -30% to -65%; inactive means above about -30%; note: % is set by controls: 0 for no effect and ±100 for the full control effect; compound concentration not given in the record
#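 Steps: dispense buffer (Tris pH 8.0, NaCl 300 mM, TCEP 1 mM, BSA, Tween 20); add 5X protein mix (GST-E1A, His-CtBP, 125 nM each); pin 23 nL compound; 2 h at 37 °C, dark; add 5X beads (50 ug/mL); 1 h; read.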
# D2 ag = agonists of human D2 dopamine receptor (beta-arrestin); activation, % (concentration not given with the values); AID 624465; DiscoveRx PathHunter D2 beta-arrestin, luminescence, 90 min; 100% = 57 uM dopamine signal; actives 0.084% (n = 360,000); in the data active = activation above about 40%; inconclusive = about 15% to 40%; inactive = below about 15%; note: compound concentration not given in the record; the text of the record calls up to 30% inactive
# Target sequence (P14416 whole entry, looked up): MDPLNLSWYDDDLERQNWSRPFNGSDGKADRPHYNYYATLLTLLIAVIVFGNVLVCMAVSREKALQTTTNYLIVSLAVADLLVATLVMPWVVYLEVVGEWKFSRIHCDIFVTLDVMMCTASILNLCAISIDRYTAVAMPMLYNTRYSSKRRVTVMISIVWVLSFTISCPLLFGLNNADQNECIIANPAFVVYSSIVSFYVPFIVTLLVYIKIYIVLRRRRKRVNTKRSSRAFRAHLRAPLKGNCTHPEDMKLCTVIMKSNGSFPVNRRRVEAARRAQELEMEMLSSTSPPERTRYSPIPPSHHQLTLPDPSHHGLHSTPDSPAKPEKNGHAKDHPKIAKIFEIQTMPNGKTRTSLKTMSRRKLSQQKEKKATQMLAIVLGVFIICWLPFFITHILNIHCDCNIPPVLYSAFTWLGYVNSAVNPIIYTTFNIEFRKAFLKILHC
#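 DiscoveRx PathHunter D2 beta-arrestin cells (2,100/well) attached overnight, then compound-stimulated 90 min at 37 C in HBSS/10 mM HEPES/0.1% Tween-20 buffer; beta-galactosidase complementation read by luminescence after 1 h at ambient temperature. Dopamine 57 uM final (EC100) as control.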
# PINK1 modulator = modulators of PINK1 expression | AID 624263 | actives 0.2% (n = 410,000) | Potency, µM (titrated, usually from 76.6 µM), without a hit: at the top dose activation (PINK1 increase), usual class: activators | PINK1 immunofluorescence, high-content cytometry, 24 h; active = well fitted activation curve with a large enough effect; inconclusive = small, poorly fitted or top-dose-only effect; inactive = flat fitted curve, though single readings scatter; cell line not stated here;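 note: potency is the fitted concentration of half-maximal effect; % of control where 0% means no effect; nearly all actives have a fitted effect of over 65% in size; a mitochondrial uncoupler was the plate control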
#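 Compound titrations (5 concentrations, 24 h) on a stable cell line; DMSO and CCCP controls. Endpoint: fixed-cell PINK1 immunofluorescence with mitochondrial, cell and nuclear markers, scanned by microplate cytometer.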
# D2 potentiator = positive allosteric modulators of human D2 dopamine receptor; P14416; DiscoveRx D2 beta-arrestin cells, luminescence, 90 min; 100% = 57 uM dopamine signal; potentiation, % (concentration not given with the values); actives 0.23% (n = 360,000); AID 624464; active = potentiation of 50% or more; inconclusive = 30% to 50%; inactive = 30% or less;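 note: compound concentration not given in the record; tested on top of an EC20 dose of dopamine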
#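 D2 cells co-treated with compound plus 50 nM dopamine (EC20) for 90 min at 37 deg C to detect potentiation. Beta-arrestin recruitment was read as enzyme-fragment luminescence after 1 h at ambient temperature. Full response was set by 57 uM dopamine.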
# TRPML1 ag = agonists of human TRPML1 channel; actives 0.12% (n = 410,000); AID 624414; TRPML1-expressing cells, Ca2+ dye fluorescence, FDSS; host cell line not named in the record; reference of the full effect not given here; Q9GZU1; activation, % (concentration not given with the values); in the data active = activation above about 50%; inconclusive = about 30% to 50%; inactive = below about 30%; note: 0% is about no effect; the text of the record puts the active cut at 80%
# Target sequence (Q9GZU1 whole entry, looked up): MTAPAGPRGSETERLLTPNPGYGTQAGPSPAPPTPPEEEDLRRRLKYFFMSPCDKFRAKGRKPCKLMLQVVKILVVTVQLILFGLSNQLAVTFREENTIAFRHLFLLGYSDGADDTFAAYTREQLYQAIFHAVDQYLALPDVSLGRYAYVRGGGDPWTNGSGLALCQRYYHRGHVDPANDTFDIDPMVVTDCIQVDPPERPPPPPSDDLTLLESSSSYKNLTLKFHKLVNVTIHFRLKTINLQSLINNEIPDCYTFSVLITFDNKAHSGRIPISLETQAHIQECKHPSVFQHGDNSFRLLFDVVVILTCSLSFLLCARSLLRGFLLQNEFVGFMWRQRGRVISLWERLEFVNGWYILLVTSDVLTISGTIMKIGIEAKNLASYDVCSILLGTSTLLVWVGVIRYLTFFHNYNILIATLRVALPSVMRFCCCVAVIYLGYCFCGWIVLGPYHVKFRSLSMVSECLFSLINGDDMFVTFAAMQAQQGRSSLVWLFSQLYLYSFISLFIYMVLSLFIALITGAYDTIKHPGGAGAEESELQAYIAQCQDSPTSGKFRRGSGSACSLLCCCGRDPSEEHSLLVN
#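 TRPML1-DL cells, Tet-induced overnight (~16 h, 37 degrees C), loaded 45-90 min at room temperature with Ca8 no-wash calcium dye plus quencher. FDSS fluorescence: 10 s baseline, compound pin-transfer, 110 s agonist read, then EC80 54-4 (4uM final) and 110 s antagonist read.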
# Six1-Eya2 blk = Six1/Eya2 interaction inhibition. AID 651725. activity change, % (no concentration beside the values). actives 0.56% (n = 360,000). AlphaScreen GST-Six1/His-Eya2 binding, biochemical; stronger effect = lower value; control for the full effect not named in the record. Q15475+O00167; in the data active = activity change below about -65%; inconclusive = about -30% to -65%; inactive = above about -30%; note: % is set by controls: 0 for no effect and ±100 for the full control effect; compound concentration not given in the record
#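 AlphaScreen with GST-Six1 and His-Eya2 (5X mix: 250 nM and 500 nM), glutathione donor and nickel acceptor beads; buffer 50 mM Tris pH 8.0, 300 mM NaCl, 1 mM TCEP; 1 h at 37 C in the dark.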
# Numbers without * were called inactive; ? = inconclusive; nt = no result given; [ ] = remark or other dose. No enrichment for hits; 1.3% or so of the library scored in one or more.
SMILES,CtBP-E1A blk,D2 ag,PINK1 modulator,D2 potentiator,TRPML1 ag,Six1-Eya2 blk
Cc1ccc(NCc2nnc(SCC(=O)Nc3cccc(O)c3)n2CC2CCCO2)c(C)c1 (configuration not stated),-14,-4.7,2.2%,-11,0.0,-13
COc1ccc(OC)c(-c2nnc(SCC(=O)N3CCOCC3)o2)c1,-1,-1.4,1.4%,-12,0.7,-8
C#CCNC(=O)C1=C[C@@H](c2ccc(C#C)cc2)C[C@@H](OCCCCO)O1,-2,0.0,0.5%,-1,-1.0,-5
O=C1Nc2ccccc2SC1c1ccccc1Cl (configuration not stated),3,-0.4,9.2%,0,-0.6,1
O=C(CCN1CCCCC1=O)NC1CCCc2c1cnn2-c1ccccc1F (configuration not stated),0,2.4,1.1%,-4,0.6,3
NNC(=O)/C(=C/c1cccs1)NC(=O)c1ccccc1Cl,-7,-5.3,4.4%,-8,0.4,-4
COc1ccc(-c2ccc(SCC(=O)c3cccs3)nn2)cc1OC,?,6.1,0.1%,-14,0.0,?
S=c1[nH]nc(-c2ccco2)n1/N=C/c1cccc(Cl)c1Cl,-10,0.1,0.7%,-13,3.2,-5
COc1ccc(NC(=O)C2CCCN(C(=O)Nc3ccc(OC)cc3)C2)cc1 (configuration not stated),-3,-5.5,-1.5%,-11,-0.5,21
OCCC1CN(Cc2cccn2-c2ccccn2)CCN1C1CCCCC1 (configuration not stated),6,-3.3,-0.1%,-14,1.4,-1
O=C(Cn1cc(C(=O)C2CC2)c2ccccc21)NC1CCCC1,-5,1.8,3.1%,-2,0.5,11
O=C(CSc1nnc(NC(=O)c2ccco2)s1)NCc1ccc2c(c1)OCO2,-15,-2.6,0.5%,-16,-0.7,-4
O=C(Nc1cc(-c2nc3ncccc3o2)ccc1Cl)c1cccs1,-3,-1.4,2.9%,-6,-0.8,-18
O=C(C[C@@H]1C/C=C\C[C@@H](Cc2ccc(F)cc2)C(=O)OC[C@@H](Cc2c[nH]c3ccccc23)NC1=O)NCCO,nt,-2.4,2.7%,0,-0.1,-3
CCOc1cc(/C=N/NC(=O)CCn2nnc3ccccc32)ccc1O,-22,-3.3,-0.1%,3,-0.1,-13
O=C1C=C(c2cc3ccccc3s2)C[C@@H](c2ccc(F)cc2)C1,nt,1.1,0.4%,-7,2.4,2
CN(Cc1cn(Cc2ccc(C(F)(F)F)cc2)nn1)C1CN(Cc2cn(Cc3ccc(C(F)(F)F)cc3)nn2)S(=O)(=O)C1 (configuration not stated),4,nt,2.7%,nt,-0.5,4
CC1CC2=C(NC(=S)NC2c2cccc(F)c2)/C(=C/c2cccc(F)c2)C1 (configuration not stated),-20,-4.7,2.3%,-7,0.6,?
O=C(NCCC1CCCCN1S(=O)(=O)c1ccc(F)cc1)C(=O)NC1CCCC1 (configuration not stated),3,-0.8,2.8%,-12,0.3,-1
COc1ccccc1NS(=O)(=O)c1cccc(NC(=O)C(C)NC(=O)c2ccco2)c1 (configuration not stated),-1,6.9,2.9%,3,-0.2,5
O=C(O)c1cc(-c2cccnc2)nc2ccccc12,3,-1.1,30%,-5,-0.2,2
O=C1c2ccccc2C(=O)N1CCc1nc(-c2cccnc2)no1,5,-1.3,0.3%[38.3 µM],-4,-0.4,-3
CC(=O)Nc1ccc(C(=O)N2CCCCC2c2cc(C(=O)Nc3cccc(C#N)c3)no2)cc1 (configuration not stated),0,1.3,-0.6%,-2,-0.2,2
CC1/C(=N/O)CC(c2ccccc2)NC1c1ccccc1 (configuration not stated),0,-1.2,-0.1%[38.3 µM],-6,-0.5,-3
COc1ccc(-n2nc([N+](=O)[O-])c(=NCCc3cccc(C)c3)n2O)cc1,?,7.9,-0.9%,65*,1.5,-17
Cc1nnc(N/N=C/c2ccccn2)[nH]c1=O,-90*,3.6,-0.7%,-4,0.1,-73*
c1ccc(CNc2nc(NCc3ccco3)nc(N3CCOCC3)n2)cc1,-5,-3.0,1.9%,-3,3.9,-6
Cc1ccccc1NC(=O)n1ncc2cc(Cl)ccc21,3,2.9,-0.3%,-4,0.9,8
O=C(NS(=O)(=O)c1ccc(NC(=O)C2CCCO2)cc1)c1ccccc1 (configuration not stated),8,-1.6,12%[38.3 µM],5,0.3,2
CC(C)NC(=O)c1sc(=S)n2c1[nH]c(=O)c1ccc(C(=O)NCCc3ccc(Cl)cc3)cc12,nt,0.5,2.7%,-8,1.2,1

# Some of these compounds in order of count of non-hydrogen atoms, smallest number first.
SMILES,CtBP-E1A blk,D2 ag,PINK1 modulator,D2 potentiator,TRPML1 ag,Six1-Eya2 blk
O=C(NS(=O)(=O)c1ccc(NC(=O)C2CCCO2)cc1)c1ccccc1 (configuration not stated),8,-1.6,12%[38.3 µM],5,0.3,2
COc1ccccc1NS(=O)(=O)c1cccc(NC(=O)C(C)NC(=O)c2ccco2)c1 (configuration not stated),-1,6.9,2.9%,3,-0.2,5
CN(Cc1cn(Cc2ccc(C(F)(F)F)cc2)nn1)C1CN(Cc2cn(Cc3ccc(C(F)(F)F)cc3)nn2)S(=O)(=O)C1 (configuration not stated),4,nt,2.7%,nt,-0.5,4

# More results.
SMILES,CtBP-E1A blk,D2 ag,PINK1 modulator,D2 potentiator,TRPML1 ag,Six1-Eya2 blk
CCn1cc(C(=O)OCC(=O)Nc2ccc(C(C)C)cc2)c(=O)c2ccc(C)nc21,-2,3.1,-0.5%,-1,1.5,-2
CN(C(=O)c1cccc(NC(=O)Cc2ccc(NC(=O)C3CCN(C(=O)c4ccccc4)CC3)cc2)c1)C1CC1,3,-1.0,-0.7%,-1,-1.2,6
CC(C)Oc1ccc(/C=C(\C#N)C(=O)NC2CC2)cc1,4,-2.8,1.8%,-2,1.0,-1
CCNC(=O)C1(C)CCN(C(=O)c2c(-c3ccccc3)noc2C)C1 (configuration not stated),5,-7.6,2.2%,2,-0.6,4
C/C(=N\O)C(=O)Nc1ccccc1,nt,7.2,-0.3%,4,0.9,-5
COc1ccc(-c2oc3ccc(N4CCOCC4)cc3c2C#CC2(O)CCCCC2)cc1,nt,-1.0,5.8%,-10,1.5,-13
COc1ccccc1OCCn1c(C(C)O)nc2ccccc21 (configuration not stated),8,-4.0,-3.8%,-1,-1.0,0
Cc1ccc(N(CC(=O)NC2CCCC2)C(=O)c2nsc(Cl)c2Cl)cc1,3,-2.7,-1.7%,-10,2.1,7
c1ccc(NN=C2c3ccccc3-c3ccccc32)cc1,-9,2.0,?,-2,-0.6,-16
COCCOc1cc2ncnc(N3CCC(C(=O)O)CC3)c2cc1OCCOC,-1,-6.2,-2.0%,-7,-0.4,1
CCOC(=O)c1cc(C#N)c(N2CCCCC2)nc1-c1ccccc1,135,-0.5,3.8%,-2,-0.1,119
CCCCN(CC)CCNC(=O)CNC(=O)Cn1ccc2ccccc2c1=O,-1,-5.3,-0.4%,-9,-0.1,5
COc1cc2ncnc(NCc3ccc(Cl)cc3)c2cc1OC,-2,-3.4,1.8%,-25,1.6,-1
COC(=O)c1ccc(N2CCN(C)CC2)c(NC(=O)COc2ccc(OC)cc2)c1,-4,-1.2,0.0%,-2,1.9,0
COc1ccc(NC2=NC(=S)N(c3ccc(C)cc3)C23CCCCC3)cc1,7,-1.6,6.9%,-23,-0.6,10
CN(C(=O)c1ccc(-c2nn(C)c(=O)c3ccccc23)cc1)C1CCCCC1,-4,5.5,8.8%,1,0.3,0
COc1ccccc1C(=O)Nc1cccc2cccnc12,13,3.6,-1.3%,-2,-0.4,7
COCCc1nc2ccc(C(=O)NCc3cccc(-n4cccn4)c3)cc2o1,0,4.6,-0.6%,-4,-0.7,-2
CC(C)(C)c1ccc(C(=O)NCC(=O)OCC(=O)N2CCN(S(=O)(=O)c3ccc(Cl)cc3)CC2)cc1,-1,2.7,-3.0%,10,0.4,0
COC(=O)c1c(NC(=O)CN2CCN(C(=O)c3ccco3)CC2)c2c(C)cccc2n1C,-4,5.7,0.3%,3,0.2,-13
CCN(CC(=O)Nc1sc2c(c1C#N)CCC(C)C2)CC(=O)NC1CCS(=O)(=O)C1 (configuration not stated),1,4.2,1.6%,-3,-0.7,1
CCOC(=O)c1c(C)n(-c2ccc(C)cc2)c2ccc(OCC(O)CNCC3CCCO3)cc12 (configuration not stated),-27,-11,-1.2%,-19,-0.1,-19
CCCn1c(CN2CCN(C(=O)c3ccco3)CC2)nc2c1c(=O)n(C)c(=O)n2C,?,-1.2,2.9%,-4,0.0,-5
O=C1CN(C(=O)c2ccco2)C(c2ccccc2)c2cc(Cl)ccc2N1 (configuration not stated),-5,-2.0,0.2%,-11,-0.2,3
CCCOC(=O)CCn1c(=S)oc2ccccc21,8,-1.8,0.4%,-1,0.1,13
Cc1ccc(NC(=S)NCc2ccccc2Cl)c(C)c1,3,-3.0,-0.4%,-14,-0.6,-18
COc1cccc(NC(=O)CN(C)C(=O)c2ccccn2)c1,nt,5.0,0.6%,0,0.0,7
CC(=O)N1CCN(S(=O)(=O)c2cccc(C(=O)Nc3ccc4c(c3)OCO4)c2)CC1,-18,-1.7,0.4%,-1,-0.4,-8
COc1ccccc1N(C)S(=O)(=O)c1ccc(C(=O)Nc2cc(OC)c(OC)c(OC)c2)cc1,1,3.6,6.7%,5,0.3,-8
CC1CC1C(=O)NCCc1ccc(Cl)cc1 (configuration not stated),-5,-0.9,-1.8%,2,0.3,10
COc1ccc(N2CCN(Cc3nc4scc(-c5cccs5)c4c(=O)[nH]3)CC2)cc1,-3,-3.0,3.8%,2,1.3,-10
CCN(CC)S(=O)(=O)c1cccc(C(=O)NCCc2ccccc2)c1,5,-1.2,2.8%[38.3 µM],-3,2.3,5
CCOC(=O)C(CC)Sc1nnc2n1C(C)(C)Cc1ccccc1-2 (configuration not stated),-1,6.1,-0.3%,4,-0.9,4
Cc1ccc(C(=O)COC(=O)CCNS(=O)(=O)c2ccccc2F)cc1,nt,0.9,0.4%,-1,-1.9,-4
Cc1ccc(N=Cc2c(O)n(C)c(=O)n(C)c2=O)nc1,10,-2.8,0.5%[38.3 µM],-17,-0.4,3
COc1ccc(NC(=S)NCC(c2cccnc2)N2CCOCC2)cc1 (configuration not stated),1,-0.3,-0.5%,0,-0.5,6
Cc1ccc(S(=O)(=O)N2CCN(C(=O)c3c(C)nn(-c4ccccc4)c3Cl)CC2)cc1,4,0.1,nt,-7,1.7,3
COc1ccc(O)c(/C=N/NC(=O)c2ccc(N3CCCC3=O)cc2)c1,-71*,-2.5,12%,-6,-0.1,?
CCC(C)(C)NC(=O)CN(CC1CCCO1)C(=O)CNS(=O)(=O)c1ccccc1 (configuration not stated),-1,1.1,0.3%,-3,-0.6,-1
CCn1c(=O)cc(SCC(=O)N2CCC(C)CC2)c2ccccc21,1,-1.9,6.5%[38.3 µM],-10,-0.1,-7
Cn1ccc2c(N(Cc3ccccc3)Cc3ccccc3)cc3c(c21)C1CCC3O1 (configuration not stated),-29,4.5,4.3%,5,0.3,?
